Compound activity deposited in PubChem by National Center for Advancing Translational Sciences (NCATS).
2A StopGo: FMDV 2A StopGo reporter, luciferase signal. human cells with a luciferase reporter of 2A StopGo recoding; control for the full effect not named in the record. Potency, µM (series often up to 57.9 µM), for the others: top-dose signal change, negative = less light. hit rate 1.2% among 410,000; active = well fitted falling curve with a large enough effect; inconclusive = small, poorly fitted or top-dose-only effect; inactive = no such curve, though single readings can be large or run the other way; tested in HEK293T cells; note: % is set by controls: 0 for no effect and ±100 for the full control effect; nearly all actives have a fitted effect of over 45% in size; luciferase light after 4 h
SARS PLP yeast: SARS-CoV PLP inhibition in yeast. S. cerevisiae expressing SARS-CoV PLpro, growth rescue; control for the full effect not named in the record. Potency, µM (top dose mostly 32.9 µM), without a hit: at the highest dose activity, positive = growth rescue. hit rate 0.19% among 330,000; note: 0% is about no effect; nearly all actives have a fitted effect of over 55% in size; growth read by luminescence after 48 h
Lassa entry inh: inhibitors of Lassa virus binding or cell entry; hit rate 1.2% among 300,000; Potency, µM (doses to about 37.9 µM), without a hit: top-dose activity change, negative = inhibition, usual class: inhibitors; Lassa virus pseudotype entry inhibition, cell reporter; control for the full effect not named in the record; active means well fitted inhibition curve with a large enough effect; inconclusive means small, poorly fitted or top-dose-only effect, or effect the other way; inactive means flat fitted curve, though single readings scatter; tested in HEK293 cells; note: % is set by controls: 0 for no effect and ±100 for the full control effect; nearly all actives have a fitted effect of over 50% in size; luciferase read-out
Cruzain noTriton: inhibitors of Trypanosoma cruzi cruzain without detergent | P25779 | purified cruzain, Z-FR-AMC fluorescence, no detergent | Potency, µM, inactives show max response, negative = inhibition, actives largely listed as inhibitors | hit rate 2.3% among 200,000; active = well fitted curve in the direction sought with a large enough effect; inconclusive = small, poorly fitted or top-dose-only effect, or another doubt; inactive = no such curve, though single readings can be large; an effect the other way counts as inactive or inconclusive;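 note: plate controls were enzyme without inhibitor for no effect and buffer without enzyme for full effect; nearly all actives have a fitted effect of over 40% in size; top concentration of the series not given in the record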
Target sequence (P25779 123-467 limits assumed): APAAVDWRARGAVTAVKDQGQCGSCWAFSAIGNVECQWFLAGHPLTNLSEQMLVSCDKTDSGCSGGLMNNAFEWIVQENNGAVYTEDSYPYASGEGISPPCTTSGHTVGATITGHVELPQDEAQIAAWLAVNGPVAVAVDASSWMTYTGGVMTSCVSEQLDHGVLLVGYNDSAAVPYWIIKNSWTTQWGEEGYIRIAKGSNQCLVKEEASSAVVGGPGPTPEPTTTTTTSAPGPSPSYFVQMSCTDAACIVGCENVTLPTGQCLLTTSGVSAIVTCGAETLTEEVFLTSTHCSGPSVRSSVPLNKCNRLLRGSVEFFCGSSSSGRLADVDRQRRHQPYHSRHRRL
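Purified cruzain at 1.5 nM, pre-incubated 15 min with compound at room temperature in 100 mM sodium acetate pH 5.5, 5 mM DTT, 0.00005% Triton X-100. Reaction started with 2 uM Z-FR-AMC; AMC fluorescence increase over 60 s gives rate.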
Marburg entry inh: blocks Marburg virus binding to or entry into cells; Marburg virus pseudotyped entry inhibition, cell reporter; control for the full effect not named in the record; about a third of the inactives were read at about 46 µM; Potency, µM (top dose mostly 37.8 µM), without a hit: at the top dose activity change, negative = inhibition, hits mostly inhibitors; hit rate 1.8% among 300,000; AID 540276; active = well fitted inhibition curve with a large enough effect; inconclusive = small, poorly fitted or top-dose-only effect, or effect the other way; inactive = flat fitted curve, though single readings scatter; tested in HEK293 cells; about a fifth of its hits are not listed in these tables; note: % is set by controls: 0 for no effect and ±100 for the full control effect; luciferase read-out
NS1 function inh: inhibitors of influenza NS1 protein function. hit rate 0.4% among 270,000. Potency, µM (series often up to 46.1 µM), without a hit: at the top dose activity, positive = more growth. AID 2326. S. cerevisiae slowed by influenza A NS1, growth recovery by OD600; note: actives are rising curves; nearly all actives have a fitted effect of over 50% in size
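Read-out: OD600 growth recovery of NS1-expressing budding yeast. Cells grown overnight at 30C in -URA glucose medium, washed, resuspended and diluted 1:100 in 2% galactose assay medium, pH 6.0. Same strain lacking NS1 served as positive control.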
RE007 growth inh: less growth of the S. pombe RE007 Vpr strain | S. pombe RE007 Vpr strain, BacTiter-Glo ATP luminescence, 24 h; control for the full effect not named in the record | Potency, µM (series often up to 92.2 µM), for the others: at the highest dose activity change, negative = less growth | hit rate 0.21% among 360,000; active = well fitted falling curve with a large enough effect; inconclusive = small, poorly fitted or top-dose-only effect; inactive = no such curve, though single readings can be large or run the other way;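 note: % is set by controls: 0 for no effect and ±100 for the full control effect; nearly all actives have a fitted effect of over 50% in size; the assay follows cell death caused by Vpr and the record does not say whether a fall means rescue or toxicity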
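Fission yeast strain RE007, carrying one chromosomally integrated HIV-1 vpr copy, was seeded at OD 0.01 in PMG+AL medium with 23 nL pinned compound. After 24 h at 30 °C and 99% humidity, viability was read by BacTiter-Glo luminescence.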
Cruzain Triton: inhibitors of Trypanosoma cruzi cruzain with detergent; P25779; purified cruzain, Z-FR-AMC fluorescence, 0.01% Triton; Potency, µM, inactives show max response, negative = inhibition, actives largely listed as inhibitors; hit rate 0.43% among 200,000; active = well fitted curve in the direction sought with a large enough effect; inconclusive = small, poorly fitted or top-dose-only effect, or another doubt; inactive = no such curve, though single readings can be large; an effect the other way counts as inactive or inconclusive;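 note: plate controls were neutral wells for no effect and buffer without enzyme for full effect; nearly all actives have a fitted effect of over 40% in size; top concentration of the series not given in the record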
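Cysteine protease activity tested under reducing, mildly acidic conditions (100 mM sodium acetate pH 5.5, 5 mM DTT) plus 0.01% Triton X-100. Cruzain 1.5 nM; substrate Z-FR-AMC 2 uM; 15 min compound preincubation at room temperature.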
* = called active by the depositor; ? = inconclusive; . = no result given; & = joins results of further samples; [ ] = dose if it differs, or a comment. Unless noted, calls come from the whole dose curve; as a rule, active means well fitted rising curve with a large enough effect; inconclusive means small, poorly fitted or top-dose-only effect; inactive means no such curve, though single readings can be large or run the other way. Potency is the fitted concentration of half-maximal effect.

molecule	2A StopGo	SARS PLP yeast	Lassa entry inh	Cruzain noTriton	Marburg entry inh	NS1 function inh	RE007 growth inh	Cruzain Triton
COc1ccc(CCN(C)CC(=O)Nc2cc(C)nc3ccccc23)cc1OC	?	1%	-7%	.	-19%[46.1 µM]	-2%	-6%	.
S=C(NCc1ccco1)N/N=C/c1ccccc1Cl	-24%	8%	?	-10%	?	12%	-8%	-14%
CCc1cccc2c(-c3ccccc3)nc(SCC(=O)Nc3ccccc3)nc12	-18%	.	8%[46.1 µM]	-12%	2%[46.1 µM]	.	.	3.5%
CCC(C(=O)NCCc1ccccc1)n1nc(C)n2c(cc3sccc32)c1=O (stereo not given)	0%	.	.	0%	4%[46.1 µM]	.	.	-2.1%
Cn1cc(/C=N/NC(=O)COc2ccccc2[N+](=O)[O-])c2ccccc21	-13%	?	24%	?	-38%	12%	-5%	-10%
COc1ccc(CNC(=O)c2ccc3c(c2)CCN3S(=O)(=O)c2ccccc2)cc1	5%	.	?	-6%	-6%[46.1 µM]	.	.	-4.1%
CCCn1cc(SCC(=O)NCc2ccc3c(c2)OCO3)c2ccccc21	8%	-5%	.	2%	.	1%	-22%	-9.7%
O=C1NC(=Nc2cccc(O)c2)S/C1=C\c1cccc([N+](=O)[O-])c1	7%	1%	21%	.	16%	5%	0%	.
CCOc1ccc(CNC(=O)c2ccc(Sc3ccc(C)cc3)c(NC(C)=O)c2)cc1OC	?	-3%	-1%	?	?	-9%	15%	-8.8%
COc1ccc(Nc2cc(Nc3cc(OC)c(OC)c(OC)c3)ncn2)cc1	?	-1%	-11%	.	16µM*	5%	-3%	.
CC(=O)Nc1ccc(S(=O)(=O)N(C)CC(=O)Nc2cccc(S(=O)(=O)N3CCCC3)c2)cc1	87%[activator]	1%	-2%	.	-28%[46.1 µM]	.	-10%	.
COC(=O)CCCC1=CC2=C(c3ccccc3)C(=O)C(C)(OC(=O)C3CCCC3)C(=O)C2=CN1c1ccc(OC)cc1 (stereo not given)	-6%	1%	.	.	-5%&-5%[14.2 µM]	2%	3%	.
CCCCC1(C)Nc2ccccc2-c2nc3ccccc3n21 (stereo not given)	42%[activator]	-10%	12%	?	-13%	-87%	-12%	-1.1%
Cc1nc2c(=O)oc3ccccc3c2n1-c1ccccc1	-22%	0%	2%	6%	4%	0%	-7%	4.8%
Cc1cc(C(=O)CSc2nc(N)cc(=O)[nH]2)c(C)n1-c1ccc(OC(F)F)cc1	3.5µM*	3%	?	.	?	7%	1%	.
CCOC(=O)c1c(C)[nH]c(CCC(=O)NCc2ccc(CC)cc2)c1C	-24%	.	-27%[46.1 µM]	25%	.	.	.	1.1%
COc1ccc(OC)c(C(=O)NC(CC(N)=O)c2ccc(N3CCCCCC3)c([N+](=O)[O-])c2)c1 (stereo not given)	-23%	-17%	.	.	.	0%	-8%	.
Cc1nn2c(c1-c1ccccc1)NC1=C(C(=O)CCC1)C2c1ccccc1 (stereo not given)	-18%	6%	-18%	0%	0%	-33%	-1%	-8.2%
O=C(N/N=C/c1cccc(Cl)c1)C(c1ccncc1)N1CCOCC1 (stereo not given)	4%	-2%	-11%	.	10%[46.1 µM]	4%	6%	.
COc1ccccc1NS(=O)(=O)c1cc(NC(=O)C2CCCO2)ccc1C (stereo not given)	38%[activator]	1%	?	.	-21%	.	-3%	.
CN(C)/N=C/c1cc(Cl)cc([N+](=O)[O-])c1O	-7%	-20%	-12%	0%	15%	-48%	-28%	-1.7%
CCOc1ccc(C(=O)c2cn(Cc3ccccc3OC)c3ccc(F)cc3c2=O)cc1	-1%	.	-9%[46.1 µM]	28%	4%[46.1 µM]	.	.	2.4%
COc1ccc(-n2c(=O)c3ccccc3n(CC(=O)NCc3ccco3)c2=O)cc1	-8%	4%	0%	.	1%[46.1 µM]	.	-6%	.
O=C(NCc1ccc(Cl)cc1)c1ccc2ccccc2n1	-14%	-6%	?	.	-25%[46.1 µM]	-26%	-5%	.
O=C(CN(Cc1ccccc1)S(=O)(=O)c1ccc(Br)cc1)N/N=C/c1ccccc1C(=O)O	-7%	-1%	.	.	.	17%	12%	.
O=C(c1ccc2c(c1)CCN2S(=O)(=O)c1ccccc1)N1CCN(c2cccc(Cl)c2)CC1	-19%	.	-7%[46.1 µM]	?	2%[46.1 µM]	.	.	-1.0%
Cc1cc(C)n2nc(C(=O)OCC(=O)N3C(C)CCCC3C)nc2n1 (stereo not given)	4%	9%	-14%	.	3%	.	1%	.
O=C(O)c1cc(-c2ccc(Cl)cc2)n(-c2ccc(F)cc2)n1	-21%	16%	32%[46.1 µM]	.	22%[46.1 µM]	16%	-6%	.
CCC(Sc1ncccc1C(=O)Oc1ccccc1Cl)C(=O)Nc1ccccc1OC (stereo not given)	-8%	.	24%[46.1 µM]	?	.	.	.	1.2%
c1ccc(-c2nc(N3CCOCC3)c3ccccc3n2)nc1	-20%	-1%	?	25%	?	-60%	-7%	4.7%
COc1ccc(CN(C(=O)Cc2cccs2)C(C(=O)NC2CCCC2)c2ccncc2)cc1 (stereo not given)	28%	-12%	-11%	0%	-11%	-32%	116%	-1.4%
CCOP(=O)(OCC)C(Nc1ccccn1)c1ccccc1 (stereo not given)	-12%	7%	5%	-5%	2%	-1%	-11%	2.0%
Cc1ccc(C)c(N2CCN(C(=O)Cn3ncc4ccsc4c3=O)CC2)c1	?	.	-2%[46.1 µM]	-4%	-24%[46.1 µM]	.	.	0.3%
CC(=O)Nc1nnc(S(=O)(=O)N2CCN(c3ccc([N+](=O)[O-])cc3Cl)CC2)s1	-16%	1%	-15%[46.1 µM]	.	-2%[46.1 µM]	9%	-4%	.
COc1cc(CN(C(=O)c2ccccc2)c2ccccn2)cc(OC)c1OC	-12%	.	-12%[46.1 µM]	0%	-1%[46.1 µM]	.	.	-0.8%
CC1=C(C(=O)N2CCN(c3cccc(C(F)(F)F)c3)CC2)C2(CCCCC2)OC1=O	?	.	-11%[46.1 µM]	-13%	?	.	.	-2.8%
COc1cccc(CNC(=O)C(=O)NCC(c2ccco2)N2CCOCC2)c1 (stereo not given)	-13%	27%	3%	-2%	7%	-8%	1%	-3.2%
CCc1cccc(CC)c1NC(=O)COC(=O)/C(C#N)=C/c1ccc(OC)cc1	-19%	22%	-14%	?	7%	8%	-7%	-13%
Nc1ncnc(NCc2ccc(F)cc2)c1[N+](=O)[O-]	-8%	-1%	0%	.	3%[46.1 µM]	4%	11%	.
Cc1[nH]c(=O)[nH]c(=O)c1Cc1cccc2ccccc12	-3%	0%	-19%	.	-8%[46.1 µM]	.	-3%	.
CC1(C)SCC(C(=O)O)N1C=O (stereo not given)	-13%	1%	-3%	-9%	4%	-2%	-5%	4.1%
CCOc1ccc2[nH]c3nc(SCC(=O)OC(C)C)nnc3c2c1	-16%	0%	.	.	.	4%	-2%	.
COc1ccc(Oc2coc3cc(OC(=O)/C=C/c4ccccc4)ccc3c2=O)cc1	2%	-16%	2%	-16%	-4%	2%	-10%	-6.3%
CCOC(=O)CNS(=O)(=O)c1cc(-c2nnc(Nc3cccc(O)c3)c3ccccc23)ccc1C	12%	.	-20%[46.1 µM]	-4%	.	.	.	-6.2%
CC(=O)NCC(=O)NC1(C(=O)NC2CCCC2)CCCCC1	14%	5%	-24%	1%	19%	5%	-16%	3.6%
COCC(C)NC(C(=O)Nc1ccc(C)c(Cl)c1)c1ccccc1 (stereo not given)	21%	4%	-11%	-2%	?	-22%	-8%	-0.4%
O=C(C1CC1)N1CCCN(C(=O)C2CC2)CC1	15%	1%	10%	-6%	15%	-1%	11%	5.8%
Cc1ccc(N2C(N)=C(C#N)C(c3cccs3)C3=C2CC(C)(C)CC3=O)cc1 (stereo not given)	18%	-23%	?	-4%	?	-4%	3%	-7.9%
COc1cccc(CN2CCN(Cc3cccc(Br)c3)CC2)c1OC	-25%	0%	?	.	?	3%	-1%	.
Cn1c(=O)c(C(=O)COC(=O)c2cc(C(F)(F)F)nc3ccccc23)c(N)n(Cc2ccccc2)c1=O	.	-3%	3%	-12%&-19%	-14%&-14%	?	.	-4.3%&-9.0%
O=C(CCl)Nc1ccc2c(c1)OCO2	?	28%	?	.	?	.	22%	.
Cc1cc(C(=O)NNC(=O)c2cccc(S(=O)(=O)N3CCOCC3)c2)c2ccccc2n1	3%	-3%	?	.	-21%[46.1 µM]	.	0%	.
COc1ccccc1CN=C1NC(=O)C(CC(=O)Nc2ccc(OC)c(OC)c2)S1 (stereo not given)	-22%	3%	4%	6%	?	-1%	5%	-2.5%
CCC(=O)N1CCc2cc(CNC(=O)Nc3cc(OC)c(OC)c(OC)c3)ccc21	-15%	.	2%[46.1 µM]	?	.	.	.	6.1%
COc1cc(CNCCCN2CCOCC2)cc(Br)c1OCc1ccc(Cl)cc1	40µM*	0%	.	.	.	-6%	25%	.
O=C(NC1CCCCC1)N1CCN(Cc2ccco2)CC1	13%	1%	9%	.	13%[46.1 µM]	2%	9%	.

Other entries
molecule	2A StopGo	SARS PLP yeast	Lassa entry inh	Cruzain noTriton	Marburg entry inh	NS1 function inh	RE007 growth inh	Cruzain Triton
Cc1ccc2c(c1)C1CN(C)CCC1N2C(=S)NC(=O)c1ccc(Cl)cc1Cl (stereo not given)	5%	1%	.	.	.	-5%	4%	.
C=C(C)COc1ccc(-c2ncncc2Oc2ccc(OC)cc2)c(O)c1	-21%	-14%	?	-21%	?	-47%	2%	-1.8%
O=S(=O)(/N=C(\c1ccccc1F)N1CCCCC1)c1ccccc1	-2%	13%	15%	-5%	0%	-11%	0%	-3.0%
CCOc1ccc(CCNC(=O)CCc2cn(Cc3ccc(C)cc3)c3ccccc23)cc1	-12%	.	2%[46.1 µM]	-16%	.	.	.	-4.3%
COc1ccccc1C(=O)NNC(=O)c1ccccc1	19%	-6%	.	.	.	-11%	-8%	.
CN1CCN2c3ncccc3Cc3ccccc3C2C1 (stereo not given)	-24%&-6%	.	.	6%	.	.	-5%[18.4 µM]	-0.5%
COc1cc(/C=C(\C#N)c2ccccn2)cc(OC)c1O	-17%	-2%	.	.	.	-37%	-3%	.
